Compound activity (PubChem)
NPYLR7 agonist – activates Aedes aegypti NPYLR7 receptor; HEK293T NPYLR7/Galpha15, GCaMP6s calcium fluorescence; activation, % at 10 µM; 270,000 compounds, 0.15% hits; AID 1259423; in the data active = activation above about 40%;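 note: 0% = vehicle and 100% = reference agonist at the receptor; some compounds past the cut are filed as inactive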
NPYLR7 agonist max-min – recorded beside NPYLR7 agonist, whose call it bears; activation, %; measured here: Max-Min RFU normalised activation; some inactives read as strong as hits;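 span of the calcium signal over five minutes; 0% = vehicle and 100% = native peptide agonist; compound fluorescence can raise it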
Active calls of the source: *; & = joins results of further samples. Not all compounds are listed, so the mix of outcomes need not match the whole.

Each structure is followed by: NPYLR7 agonist	NPYLR7 agonist max-min
#1 Cc1ccc(S(=O)(=O)NC(=O)c2cccc3c2OCCO3)s1
 : 0.1	-4.1
#2 CCN(C)S(=O)(=O)NC(=O)c1cnc(C)s1
 : -9.1	-10.2
#3 Cc1ccc(Cl)c(OCCN2CCC(C(O)c3cccnc3)CC2)c1 (centres undefined)
 : 2.2	-2.6
#4 O=C(NCCN1CCCC1)C1CCCN(S(=O)(=O)N2CCOCC2)C1 (centres undefined)
 : 5.3	1.5
#5 Cc1nccc(-c2cccc(NC(=O)CCC3CCCC3)c2)n1
 : -8.7	-14.9
#6 Clc1ccc(CSc2nc3ccccc3[nH]2)cc1
 : -4.1	-4.8
#7 COc1ccc(OCCCC(=O)NC2CCC3CCCC3C2)cc1 (centres undefined)
 : -7.6	-6.6
#8 O=C(O)CNC(=O)/C(=C/c1ccc([N+](=O)[O-])cc1)NC(=O)c1ccccc1Cl
 : -0.4	-1.7
#9 COc1cncc(-c2cnc3c(Nc4cccc(OC(F)(F)C(F)F)c4)nccn23)c1
 : -1.9	-7.3
#10 COCCCN(Cc1csc(COc2ccc(OC)cc2)n1)C(=O)Nc1ccc(C)cc1
 : -0.3	6.8
#11 CCC1CN(C(C)=O)CCC1NCc1ccc2ncccc2c1 (centres undefined)
 : 4.9	-1.3
#12 CCOC(=O)c1c(NC(=O)c2ccnc(Cl)c2)c(-c2ccc(OC)cc2)cn1Cc1ccccc1
 : 6.4	11.7
#13 O=C(Cc1ccsc1)Nc1ccc(OC(F)F)cc1
 : 11.2	3.9
#14 COc1ccccc1C=NNC(=O)c1cc(C23CC4CC(CC(C4)C2)C3)[nH]n1
 : -0.2	-1.4
#15 COC(=O)c1ccc(/C=C2\SC(=S)N(c3ccc(F)cc3)C2=O)cc1
 : 11.2	12.0
#16 Cc1cc(C)cc(OCCn2c(-c3ccccn3)noc2=O)c1
 : 12.1	8.7
#17 COc1ccccc1CSc1nc2ccccc2s1
 : -0.3	-0.3
#18 CCOC(=O)C1CCCN(C(=O)c2cccc(CSc3nc(C)c(C)c(N4CCN(c5ccccc5F)CC4)n3)c2)C1 (centres undefined)
 : 5.7	15.2
#19 COC(=O)c1c(C)c2c(c(C)c1O)OC(=O)c1c(C)c(Cl)c(O)c(Cl)c1O2
 : -0.9	-3.3
#20 Clc1cc(Cl)cc(NC2=NCCCCCC2)c1
 : -10.9	-10.9
#21 COc1ccc(-n2cc(-c3ccccc3)nc2NC(=O)CNCC2CCCO2)cc1OC (centres undefined)
 : 23.7	14.9
#22 CN(C(=O)c1ccccc1N1CCC(NC(=O)c2cccc(Br)c2)CC1)C1CCCCC1
 : -0.4	9.7
#23 Cc1cc(C2CCC2)nc(N2CCNC(C(=O)O)C2)n1 (centres undefined)
 : -10.4	-9.1
#24 NC(=O)NN1C(=O)/C(=C/c2ccco2)SC1=S
 : 27.9	10.3
#25 CN1CC(c2ccccc2)Oc2ccccc2C1=S (centres undefined)
 : 14.5	6.7
#26 COc1ccc(Cl)cc1C(=O)NCCNc1cc(-n2ccnc2C)ncn1
 : 1.3	-2.9
#27 Cc1cc(NC(=O)NC(c2cccs2)C2CCCC2)n(C)n1 (centres undefined)
 : 2.3	-0.6
#28 Cc1cc(C)n(C)c(=O)c1C(=O)NC(C)c1nc2c(s1)CCCC2 (centres undefined)
 : 4.3	3.6
#29 CNC(=O)c1cc(Nc2nnc(-c3ccc(C)c(S(N)(=O)=O)c3)c3ccccc23)ccc1OC
 : -14.7	-16.5
#30 Cn1ccc(=O)n(Cc2ccc(F)cc2Br)c1=O
 : -1.4	-1.4

Record cards, as listed above. Order of values: NPYLR7 agonist | NPYLR7 agonist max-min
Cc1cc(C)cc(OCCn2c(-c3ccccn3)noc2=O)c1 as listed: 12.1 | 8.7
COc1cncc(-c2cnc3c(Nc4cccc(OC(F)(F)C(F)F)c4)nccn23)c1 as listed: -1.9 | -7.3
COc1ccccc1C=NNC(=O)c1cc(C23CC4CC(CC(C4)C2)C3)[nH]n1 as listed: -0.2 | -1.4
Cc1cc(C)n(C)c(=O)c1C(=O)NC(C)c1nc2c(s1)CCCC2 (centres undefined) as listed: 4.3 | 3.6

Retrieved one by one from the list above:
Each structure is followed by: NPYLR7 agonist	NPYLR7 agonist max-min
#21 COc1ccc(-n2cc(-c3ccccc3)nc2NC(=O)CNCC2CCCO2)cc1OC (centres undefined)
 : 23.7	14.9
#5 Cc1nccc(-c2cccc(NC(=O)CCC3CCCC3)c2)n1
 : -8.7	-14.9
#7 COc1ccc(OCCCC(=O)NC2CCC3CCCC3C2)cc1 (centres undefined)
 : -7.6	-6.6
#4 O=C(NCCN1CCCC1)C1CCCN(S(=O)(=O)N2CCOCC2)C1 (centres undefined)
 : 5.3	1.5
#19 COC(=O)c1c(C)c2c(c(C)c1O)OC(=O)c1c(C)c(Cl)c(O)c(Cl)c1O2
 : -0.9	-3.3

The list continues:
Each structure is followed by: NPYLR7 agonist	NPYLR7 agonist max-min
#31 C/C=C/CS(=O)c1nncn1-c1ccccc1OC (centres undefined)
 : -2.5	-3.0
#32 CCCc1nnsc1C(=O)Nc1nc2c(OC)ccc(C)c2s1
 : 2.5	2.2
#33 COCCn1c(C)cc(O)c(C(c2cccc(OC)c2)N2CCC(Cc3ccccc3)CC2)c1=O (centres undefined)
 : 1.8	-2.1
#34 COc1ccc2c(c1)CC(NCC(=O)NC(C)C)CC2 (centres undefined)
 : -0.2	6.9
#35 C=CCN(CC(=O)N1CCc2sccc2C1COc1ccc(C)cc1C)C(=O)c1ccc(F)cc1 (centres undefined)
 : -1.7	5.1
#36 O=C(Cc1nc2ccccc2n1C(=O)c1ccccc1)N1CCOCC1
 : 5.7	1.7
#37 COc1ccc(NC(=O)C2CCOCC2)cc1NC(=O)c1ccccc1
 : 8.1	-5.8
#38 O=c1ccc(-c2ccccc2)nn1CCn1cnc(-c2ccccc2)c1C1CC1
 : 3.2	19.9
#39 O=c1[nH]c(CN(CC(O)c2ccccc2)C2CC2)nc2scc(-c3ccccc3F)c12 (centres undefined)
 : 24.2	24.0
#40 CC(C)N(CCNC(=O)C1CCN(c2ccc3nnc(C(F)(F)F)n3n2)CC1)C(C)C
 : 6.4	5.2
#41 O=C(Nc1ccccc1OCCOc1ccccc1)C1COCCO1 (centres undefined)
 : 10.7	8.5
#42 O=[N+]([O-])c1ccc(O)c(C=NCCC2=CCCCC2)c1
 : 3.8	7.3
#43 Cc1ccc(/C=C/c2nc(=S)n(CN(C)Cc3c(F)cccc3Cl)[nH]2)o1
 : 11.0	5.4
#44 CCC1CN(C)c2ccccc2CN1C(=O)Nc1cccc(-c2nnco2)c1 (centres undefined)
 : 3.0	-3.3
#45 Cc1ccc(CN(CCc2ccccc2)C(=O)CN(CCN2CCCCC2)C(=O)C2CC2)o1
 : -4.2	4.0
#46 COc1cccc(-c2nnc(SCC(=O)O)n2-c2ccccc2C)c1
 : -3.8	-3.0
#47 Cc1cc(C)n(CCNC(=O)CN2CCN(c3ccc4c(c3)OCCO4)C2=O)n1
 : 4.6	1.4
#48 CNC(=O)C1CCC(NC(=O)N(C)CCc2ccccc2OC)CC1 (centres undefined)
 : -19.2	-18.6
#49 COc1ccc(CNCC(=O)Nc2cccc(C)c2C)c(OC)c1
 : -2.3	2.0
#50 Cc1cc(C(=O)NCc2cccnc2-n2ccnc2)cc2sc(N)nc12
 : 11.6	9.0
#51 CCCC(=O)Oc1c(S(=O)(=O)c2ccc([N+](=O)[O-])cc2)c(C)nn1-c1ccccc1
 : 5.4	11.6
#52 Cc1nccn1CCC1CCCCN1C(=O)c1ccc(-n2cnnn2)cc1 (centres undefined)
 : 1.5	-2.7
#53 COc1ccc(S(=O)(=O)N(Cc2ccc3c(c2)OCO3)Cc2cc(Cl)ccc2OCc2nc(CO)cs2)cc1
 : 1.8	14.4
#54 N#Cc1ccc(CN(Cn2nc3ccccn3c2=S)CC(F)(F)F)cc1
 : -1.9	0.4
#55 c1ccc(CCCN2CCC(n3cc(C4CC4)nn3)CC2)cc1
 : 3.8	4.5
#56 CCn1ncnc1C(C)NC(=O)CN1CCC(C)=N1 (centres undefined)
 : 24.4	15.7
#57 CC(=O)c1ccc(OCC(=O)NCCOc2cc(N3CCCCC3)ncn2)cc1
 : 2.5	-1.0
#58 CC(C1CCNCC1)N1CCCC1 (centres undefined)
 : -5.0	-11.6
#59 CCCCCN(CC(=O)Nc1cc(C(C)(C)C)nn1-c1ccc(OC)cc1)C(=O)Nc1ccc(F)c(F)c1
 : -1.4	6.5
#60 Cc1ccc(S(=O)(=O)N2CCN(c3ccc(Cl)cc3[N+](=O)[O-])CC2)cc1
 : 13.4	3.4
#61 CC1Oc2ccc(Nc3nccc(C(F)(F)F)n3)cc2NC1=O (centres undefined)
 : 2.6	-2.0
#62 Cc1cc(C(C)(C)CC(C)(C)C)ccc1OCCOCC[N+](C)(C)Cc1ccccc1
 : -9.4&-3.6	-15.9&-8.7
#63 O=C(C=Cc1ccsc1)N1CCN(S(=O)(=O)c2ccc(F)c(F)c2)CC1
 : -0.5	-3.9
#64 CC(=O)c1ccc(S(=O)(=O)NCCn2nc(-c3ccccc3)ccc2=O)cc1
 : -1.8	-2.0
#65 C=CCN(Cc1cc(F)cc(F)c1)Cc1cccn1Cc1ccc(C(F)(F)F)cc1
 : 4.9	8.2
#66 O=C(NCCC(F)(F)F)c1coc(N2CCNC2=O)n1
 : 8.0	5.2
